Screening results deposited in PubChem by several laboratories.
FPRL1 binder: human FPRL1 ligand, with FPR counter-screen. P25090. FPRL1-expressing cells, fluorescent ligand binding inhibition, flow cytometry. inhibition, %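 (tested at 6.7 µM)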. actives 0.3% (n = 24,000);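 also: 0% = buffer alone and 100% = receptor blocker peptide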
Target sequence (P25090 whole entry, looked up): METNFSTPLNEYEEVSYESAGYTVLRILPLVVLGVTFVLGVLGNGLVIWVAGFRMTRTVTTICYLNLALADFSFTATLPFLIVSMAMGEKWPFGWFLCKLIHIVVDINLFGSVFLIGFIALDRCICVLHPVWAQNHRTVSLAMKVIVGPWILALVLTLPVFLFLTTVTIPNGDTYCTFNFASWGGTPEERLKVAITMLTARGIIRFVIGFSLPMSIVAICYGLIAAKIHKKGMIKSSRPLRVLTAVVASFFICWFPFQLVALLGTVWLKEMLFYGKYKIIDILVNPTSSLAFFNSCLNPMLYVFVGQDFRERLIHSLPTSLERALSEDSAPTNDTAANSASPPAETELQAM
FPR binder: human FPR ligand, with FPRL1 counter-screen. P21462. FPR-expressing cells, fluorescent ligand binding, flow cytometry. inhibition, %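 (tested at 6.7 µM)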. actives 0.74% (n = 24,000);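 also: 0% = buffer wells and 100% = receptor blocker peptide wells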
Target sequence (P21462 whole entry, looked up): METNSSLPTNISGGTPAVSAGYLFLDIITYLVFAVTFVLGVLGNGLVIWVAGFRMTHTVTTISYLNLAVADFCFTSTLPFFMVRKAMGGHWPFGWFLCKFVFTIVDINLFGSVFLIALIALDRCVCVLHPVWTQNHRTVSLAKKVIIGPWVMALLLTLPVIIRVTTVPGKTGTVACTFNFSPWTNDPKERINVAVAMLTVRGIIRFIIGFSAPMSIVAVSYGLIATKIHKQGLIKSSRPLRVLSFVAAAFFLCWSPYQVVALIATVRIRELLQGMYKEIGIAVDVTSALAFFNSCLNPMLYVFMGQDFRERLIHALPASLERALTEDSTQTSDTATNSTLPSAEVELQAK
VCAM-1 down: inhibitors of TNFa-induced VCAM-1 surface display, cell-based, plate reader, pooled HUVEC, TNFa stimulus (AID 454); HUVEC TNFa-induced VCAM-1 surface immunofluorescence, plate reader; numbers were filed only for top-ranked candidate wells; inhibition, % at 5 µM; actives 0.2% (n = 10,000);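 active = compound among top-ranked inhibitors of TNF-induced VCAM-1 adhesion protein staining, with the hit upheld by image or statistical review; inactive = the rest, including hits rejected on review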;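 also: 0% = TNFa with vehicle and 100% = cells without TNFa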
VCAM-1 augmentation: boosters of cytokine-driven VCAM-1 levels – imaging, high-content imaging, pooled HUVEC, TNFa stimulus (AID 457). Pooled HUVEC, TNFa-induced VCAM-1 immunofluorescence imaging; hits of this screen are not shown here. calls only. actives 0.2% (n = 10,000);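 active = a top-ranked rise in VCAM-1 staining upheld on image or statistical review; inactive = the rest, including candidates rejected on review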;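 also: compounds tested at 5 µM in the well; cells exposed to compound for 24 hours before fixing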
VCAM-1 imaging: suppression of endothelial VCAM-1 upregulation – imaging, high-content imaging, pooled HUVEC, TNFa stimulus (AID 456). HUVEC TNFa-induced VCAM-1 surface expression, immunofluorescence imaging; numbers were filed only for top-ranked candidate wells. one-dose inhibition, % at 5 µM; IC50 in µM for titrated hits. actives 0.2% (n = 10,000);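 active = top tenth filtered wells with inhibition above zero that passed visual or statistical confirmation; inactive = the rest, including hits rejected on review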;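 also: 0% = stimulated vehicle wells and 100% = unstimulated cells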
* marks the source's active call; other numbers are inactive results; i = inactive; . = not tested or not shown.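 The calls were made as follows, unless noted: active = mean above 30%; inconclusive = self-fluorescent; inactive = the rest.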 The list is partial; rates above refer to the full screens.

Compound	FPRL1 binder	FPR binder	VCAM-1 down	VCAM-1 augmentation	VCAM-1 imaging
COc1ccc(N2CCN(Cc3nc4c(c(=O)n(C)c(=O)n4C)n3Cc3ccccc3C)CC2)cc1	-3.2	4.8	i	i	i
O=C1c2ccccc2C(Nc2ccc(Cl)cn2)N1c1ccccn1 (stereo unspecified)	3.7	-1.6	.	.	.
O=C(c1ccc(Cl)cc1)C1CCN(C(=O)NC2CCCCC2)CC1	2.4	-1.6	i	i	i
COC(=O)C1C(=O)c2c([nH]c(C(=O)OCCOC(C)C)c2C)CC1C (stereo unspecified)	7.2	-2.8	i	i	i
CC(C)Oc1ccc(C2C(C(=O)c3ccco3)=C(O)C(=O)N2CCCN(C)C)cc1 (stereo unspecified)	-7.8	-5.4	i	i	i
CC(c1ccccc1)C(CC(=O)O)C(=O)NC1CCCCC1 (stereo unspecified)	-7.0	-10.4	.	.	.
Cn1c(CSc2nc3ccccc3s2)nnc1SCC(=O)NCCN1CCOCC1	0.2	-11.9	i	i	i
O=C(O)c1ccc2c(c1)ncn2C1CCCCCC1	1.9	2.8	.	.	.
c1coc(-c2nnc(-c3cccs3)o2)c1	-3.4	-2.6	i	i	i
COC(=O)c1cc2sccc2n1CC(=O)N1CCCc2ccccc21	4.9	10.7	.	.	.
O=C(CC1Nc2ccccc2NC1=O)NCCCN1CCCCCC1 (stereo unspecified)	-10.8	-5.2	.	.	.
Cn1cc(C2NC(=O)c3c(sc4c3CCCC4)N2)c2ccccc21 (stereo unspecified)	-1.9	3.5	i	i	i
CC1=C(C(=O)Nc2ccccc2)C(c2ccco2)C(C#N)=C(SCC(=O)Nc2cccc(C)c2C)N1 (stereo unspecified)	1.1	3.4	i	i	i
O=C(NCc1cccs1)C(NS(=O)(=O)c1cccc2nsnc12)c1ccccc1 (stereo unspecified)	-5.7	-4.9	.	.	.
COc1ccc(OC)c(NC(=O)CCNS(=O)(=O)c2cccs2)c1	7.9	6.0	i	i	i
CCc1c(C)nc2c(C#N)c[nH]n2c1=O	-2.7	-0.6	.	.	.
Cc1cccc(CC2CC(=O)N(c3ccccc3)C2=O)c1 (stereo unspecified)	5.5	1.8	i	i	i
CC1CN(C(=O)c2cc3cc(Cl)cc(Cl)c3oc2=O)CC(C)O1 (stereo unspecified)	11.4	8.0	i	i	i
COC(=O)c1ccc(CSc2nc3c(cnn3-c3ccc(Cl)cc3)c(=O)[nH]2)o1	1.4	11.2	.	.	.
CC(C)(C)c1ccc(-c2nnc3sc(-c4ccccn4)nn23)cc1	-16.2	-5.7	.	.	.
O=C(CSc1nc2ccccc2c(=O)[nH]1)N1CCCCC1	6.7	-5.1	.	.	.
CCCCCCCC(=O)OCC(=O)[C@@]1(O)CC[C@H]2[C@@H]3CCC4=CC(=O)CC[C@]4(C)[C@H]3[C@@H](O)C[C@@]21C	-2.4	4.0	i	i	i
CCCCOc1ccc(/C(O)=C2/C(=O)C(=O)N(CCCOC)C2c2ccncc2)cc1 (stereo unspecified)	2.3	-0.9	.	.	.
CCc1c(C(=O)N2CCOCC2)csc1C	-5.5	-2.1	i	i	i
CC1=CC(=C2C(=O)c3ccccc3C2=O)C=C(C)N1Cc1ccco1	-4.6	-2.7	.	.	.
Cc1c(CNCc2cccs2)c(C(=O)O)c(C)n1Cc1ccccc1	1.4	18.1	i	i	i
CCC1(CC)C(=O)NN(c2ccccc2)C1=O	-3.7	-8.8	.	.	.
CCN(CCCNC(=O)C1CCC(=O)N1Cc1ccc(F)cc1)c1cccc(C)c1 (stereo unspecified)	6.8	-3.8	.	.	.
COc1c(F)c(F)c(C(=O)O)c(Nc2ccc(C)cc2)c1F	-2.5	-0.6	.	.	.
COc1ccccc1N1CCN(C(=O)CCNS(=O)(=O)c2ccc3c(c2)CCC(=O)N3)CC1	-4.4	-4.1	i	i	i
Cc1cccc(CN2CCN(CC(=O)NCCCN3CCCC3=O)C2=O)c1	5.6	2.7	.	.	.
CCOC(=O)C(NC(C)=O)(NS(=O)(=O)c1ccccc1)C(F)(F)F (stereo unspecified)	2.3	3.2	i	i	i
COc1ccccc1NC(=O)c1cc2n(n1)C(C(F)(F)F)CC(c1ccc3c(c1)OCO3)N2 (stereo unspecified)	0.0	-0.5	i	i	i
Cn1nc(-c2ccc(Cl)cc2)c2cc(C(=O)N3CCC(N4CCCCC4)CC3)sc21	5.2	-4.3	.	.	.
CCOC(=O)c1nc2sc3c(c2c(=O)[nH]1)CCCC3	-11.9	3.0	i	i	i
Cc1ccc(C(=O)N(CN2CCCC2=O)c2ccc(F)cc2)cc1	-0.4	1.6	.	.	.
COc1ccc(OC)c(NC(=O)C2CCN(c3cc(-c4ccccc4)nc4ncnn34)CC2)c1	-10.2	4.6	i	i	i
COc1ccccc1N1CCN(C(=O)CSc2nc3ncnc(N)c3[nH]2)CC1	-7.2	-7.9	i	i	i
CCCC1C(C#N)=C(N)Oc2n[nH]c(C(C)(C)C)c21 (stereo unspecified)	-7.9	-3.9	i	i	i
COc1ccccc1CNS(=O)(=O)c1c(C)noc1C	3.8	3.0	.	.	.
CCC(=O)N1CCc2cc(Br)cc(S(=O)(=O)NCc3ccco3)c21	5.6	-0.9	.	.	.
Cn1c(=O)cc(SCC(=O)NCc2ccco2)c2ccccc21	6.6	-2.3	.	.	.
CC1CCN(C(=O)c2ccc(C(=O)N3CCC(C)CC3)cc2)CC1	-6.6	-14.1	i	i	i
O=C1c2cccc3c(Cl)ccc(c23)C(=O)N1O	-2.3	0.2	.	.	.
CCOC(=O)c1[nH]c(C)c(C(=O)NC2CCN(C(=O)OCC)CC2)c1C	4.2	0.3	.	.	.
Cc1ccc(S(=O)(=O)C2(C(=O)N(C)C3CCCCC3)CC2)cc1	4.2	-3.9	.	.	.
O=C(Cn1cccc1C(=O)c1ccccc1)NCc1ccc2c(c1)OCO2	-1.7	1.9	.	.	.
CCC(=O)Oc1c(S(=O)(=O)c2ccc(C)cc2)c(C)nn1C(C)(C)C	-12.2	-0.9	.	.	.
O=C(NC1CCCCCCC1)C1CCN(S(=O)(=O)N2CCC3(CC2)OCCO3)CC1	-4.4	-4.1	.	.	.
CCCSc1n[nH]c(NC(C)=O)n1	-4.9	-8.6	.	.	.

Additional entries
Compound	FPRL1 binder	FPR binder	VCAM-1 down	VCAM-1 augmentation	VCAM-1 imaging
Cn1c(SCC(=O)c2ccc(-c3ccccc3)cc2)nnc1-c1ccco1	2.7	-5.2	i	i	i
CCNC(=O)c1ccc(NS(=O)(=O)c2ccccc2)cc1	-0.3	-0.8	i	i	i
COc1ccc(N(CC(=O)NCC2CCCO2)S(=O)(=O)c2c(C)noc2C)cc1 (stereo unspecified)	3.5	-3.8	.	.	.
COc1ccc(C2C=C(c3ccccc3)Nc3ncnn32)cc1 (stereo unspecified)	0.4	13.6	i	i	i
O=C(Nc1ccccc1)N(CCCN1CCOCC1)Cc1cccs1	-3.4	-1.7	.	.	.
COc1cc2[nH]c(=O)n(Cc3ccc(C(=O)NCC4CCCO4)cc3)c(=O)c2cc1OC (stereo unspecified)	3.1	7.5	.	.	.
Cn1c(Cn2c(=O)sc3ccccc32)nnc1SCC(=O)Nc1ccccc1F	-0.8	-2.7	.	.	.
CN1CCN(C(c2cccc(C(F)(F)F)c2)c2nnnn2C(C)(C)C)CC1 (stereo unspecified)	0.0	-9.1	i	i	i
COc1ccc(-c2onc(C)c2-c2ccccc2)c(O)c1	-3.2	2.6	i	i	i
O=c1[nH]c2ccsc2c(=O)n1-c1ccc(F)cc1	8.4	5.1	.	.	.

Structures listed so far that have two or more sulfur atoms:
Compound	FPRL1 binder	FPR binder	VCAM-1 down	VCAM-1 augmentation	VCAM-1 imaging
Cn1c(CSc2nc3ccccc3s2)nnc1SCC(=O)NCCN1CCOCC1	0.2	-11.9	i	i	i
O=C(NCc1cccs1)C(NS(=O)(=O)c1cccc2nsnc12)c1ccccc1 (stereo unspecified)	-5.7	-4.9	.	.	.
COc1ccc(OC)c(NC(=O)CCNS(=O)(=O)c2cccs2)c1	7.9	6.0	i	i	i
Cn1c(Cn2c(=O)sc3ccccc32)nnc1SCC(=O)Nc1ccccc1F	-0.8	-2.7	.	.	.

New compounds follow:
Compound	FPRL1 binder	FPR binder	VCAM-1 down	VCAM-1 augmentation	VCAM-1 imaging
O=C(Nc1ccc(N2CCOCC2)c(F)c1)c1ccncc1	-4.9	1.8	i	i	i
CC(=O)c1cccc(NS(=O)(=O)c2ccc3c(c2)oc(=O)n3C)c1	0.9	-3.9	i	i	i
Cc1onc(-c2ccccc2Cl)c1C(=O)Nc1ccc(S(=O)(=O)N2CCCC2)cc1	-2.9	5.7	.	.	.
COC(=O)c1ccc(C2/C(=C(/O)c3ccc(OC)cc3)C(=O)C(=O)N2Cc2ccco2)cc1 (stereo unspecified)	5.0	37.6*	.	.	.
CCN(CC)C(=O)CSC1=C(C#N)C(c2ccco2)C(C(=O)OCCOC)=C(C)N1 (stereo unspecified)	-3.1	-8.0	i	i	i
CCOC(=O)CCCn1nc(C)n2c(cc3sccc32)c1=O	1.9	4.1	i	i	i
COc1ccc(NC(=O)C2CCCN(S(=O)(=O)c3cccnc3)C2)cc1 (stereo unspecified)	4.2	0.8	.	.	.
COC(=O)c1[nH]c2c(c1C)C(=O)CC(c1ccc(C)cc1)C2 (stereo unspecified)	-7.5	7.0	.	.	.
COC(=O)C1C(=O)c2c([nH]c(C(=O)OC3CCCCC3)c2C)CC1C (stereo unspecified)	4.6	-1.7	.	.	.
CCCCC(NC(C)=O)c1nc2ccccc2n1CCCC (stereo unspecified)	-0.3	5.2	.	.	.
CCOC(=O)c1oc2cc(O)ccc2c(=O)c1-c1ccccc1OC	23.5	34.2*	.	.	.
CCN1CCCC1CNC(=O)CSc1cc(=O)n(CC)c2ccccc12 (stereo unspecified)	2.5	-2.8	.	.	.
Cn1nc(-c2ccc(Cl)cc2)c2cc(C(=O)N3CCN(c4ccccn4)CC3)sc21	-9.8	-0.3	.	.	.
O=C(Nc1ccc(Cl)cc1C(=O)Nc1ccncc1)c1ccco1	-4.9	1.4	i	i	i
COCCNC(=O)c1ccc2c(c1)NC(=O)CS2	8.4	9.6	.	.	.
Cc1oc(-c2ccccc2F)nc1CS(=O)(=O)CC(=O)NC1CCCC1	-1.3	2.2	.	.	.
Brc1ccc(-c2noc(CCc3ccccc3)n2)o1	2.8	-1.6	.	.	.
Cc1cc(C)nc(NC2=NCC(=O)N2c2ccccc2Br)n1	4.0	3.8	i	i	i
COc1ccc(N2CCN(CCNC(=O)c3cccn4c(=O)c5ccc(Cl)cc5nc34)CC2)cc1	1.1	-1.6	.	.	.
CCOc1ccc(NC(=O)CN2CCN(CC(=O)c3ccc(OCC)cc3)CC2)cc1	-2.3	-1.7	i	i	i
CCCCn1c(SCC(=O)NCc2ccco2)nc2ccc(N3CCOCC3)cc2c1=O	3.7	6.2	.	.	.
O=C(O)C1CCCN1S(=O)(=O)c1ccc(Br)s1 (stereo unspecified) (tested in a mixture with another compound)	-5.8	3.7	.	.	.
COc1ccc2cc(C(=O)Nc3c(C)n(C)n(-c4ccccc4)c3=O)sc(=O)c2c1OC	1.5	3.9	.	.	.
COc1ccc2nc(NC(=O)CCc3nc(-c4ccccc4F)no3)sc2c1	5.1	3.3	.	.	.
O=C(Cn1ccc2ccccc2c1=O)NCCC(=O)Nc1ccc2c(c1)OCCO2	-11.2	-10.9	.	.	.
CC(=O)Nc1cccc(NC(=O)CSc2nnnn2C)c1	-0.3	5.6	i	i	i
CC1(C)CC(=O)C(C=NCCc2ccc(S(N)(=O)=O)cc2)=C(O)C1	-2.8	0.5	i	i	i
Cn1c(=O)[nH]c(=O)c2c1nc(CN1CCN(c3cccc(Cl)c3)CC1)n2CCN1CCOCC1	3.3	0.5	.	.	.
C=CCn1c(SCC(=O)NC23CC4CC(CC(C4)C2)C3)nc(O)cc1=O	-3.0	3.3	i	i	i
COc1ccc(C2OC(=O)CC2C(=O)NC2CCCCCC2)cc1OC (stereo unspecified)	2.3	2.6	.	.	.
COc1ccc(C2c3sc(=O)[nH]c3SC3C(=O)N(c4ccccc4)C(=O)C32)cc1 (stereo unspecified)	-2.3	3.5	.	.	.
COC(=O)c1cc(NS(=O)(=O)c2ccc3c(c2)CCC(=O)N3)cc(C(=O)OC)c1	0.0	7.5	i	i	i
